Compound activity from PubChem BioAssay.
YopH PTP inh – blocks Yersinia enterocolitica YopH tyrosine phosphatase; inhibition, %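 (about 10 µM by stock and volumes)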; fluorescence Ex485/Em525; 140,000 tested, 0.16% active;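 active = inhibition of 50% or more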;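 also: controls were vehicle for no effect and minimum signal wells for full effect; inactives centre near -20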
Mtb bLac sens – beta-lactam sensitization of Mtb H37Rv; M. tuberculosis H37Rv growth with meropenem, percent inhibition; hits of this screen are not shown here; inhibition, % at 25 µM; 330,000 tested, 0.27% active;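 active = about 74% or more and at least 40 points above the plate without the antibiotic, then above 30% in a dose series; inconclusive = first-round hits that could not be retested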;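 also: growth measured after seven days incubation then overnight dye step; 0% = bacteria only wells and 100% = bacteria with antibiotic; twin plates without the antibiotic show which effects depend on it; some results filed as inactive read as strong as hits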
Mtb H37Rv – M. tuberculosis H37Rv growth inhibitors, H37Rv strain (AID 1626); inhibition, % at 10 µM; hits with a dose series show IC50 in µM; 220,000 tested, 0.95% active; M. tuberculosis H37Rv growth inhibition; higher % means a stronger effect;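 active = confirmed in a dose series; inconclusive = inhibition above 80% but not taken into the dose series; inactive = below 80% or under 30% at every dose of the series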;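 also: bacteria incubated seven days before Alamar blue readout; 0% = bacteria only wells and 100% = bacteria with antibiotic wells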
RecA intein inh – inhibitors of M. tuberculosis RecA intein splicing. P9WHJ3. cell-free RecA intein splicing, fluorescence. inhibition, %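 (about 9 µM by stock and volumes)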. 290,000 tested, 0.75% active. AID 2221; in the data active = inhibition above about 30%; inconclusive = no clear call, values can overlap the other calls;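 also: 0% = vehicle wells and 100% = reference inhibitor control wells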
Target sequence (P9WHJ3 whole entry, looked up): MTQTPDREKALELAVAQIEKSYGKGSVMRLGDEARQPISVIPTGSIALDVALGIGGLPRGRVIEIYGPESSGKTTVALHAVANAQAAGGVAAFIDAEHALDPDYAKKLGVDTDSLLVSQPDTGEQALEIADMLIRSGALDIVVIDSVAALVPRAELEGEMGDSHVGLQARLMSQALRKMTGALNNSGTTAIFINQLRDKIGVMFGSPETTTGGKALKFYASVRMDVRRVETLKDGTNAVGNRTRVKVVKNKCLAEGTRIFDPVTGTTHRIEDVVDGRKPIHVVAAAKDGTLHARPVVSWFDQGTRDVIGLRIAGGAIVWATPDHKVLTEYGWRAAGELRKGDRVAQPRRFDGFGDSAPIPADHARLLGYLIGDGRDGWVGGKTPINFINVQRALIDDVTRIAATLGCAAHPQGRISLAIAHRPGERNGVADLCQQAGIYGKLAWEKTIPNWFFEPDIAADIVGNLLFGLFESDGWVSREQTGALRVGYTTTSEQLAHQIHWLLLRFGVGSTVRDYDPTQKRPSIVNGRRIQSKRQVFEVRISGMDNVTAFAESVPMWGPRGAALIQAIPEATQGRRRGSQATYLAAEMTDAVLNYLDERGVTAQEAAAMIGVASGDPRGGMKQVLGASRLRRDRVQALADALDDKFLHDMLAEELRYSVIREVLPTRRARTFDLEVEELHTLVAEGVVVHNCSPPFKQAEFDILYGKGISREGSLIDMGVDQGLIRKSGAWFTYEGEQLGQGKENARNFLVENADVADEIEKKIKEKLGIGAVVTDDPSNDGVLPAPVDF
Arbovirus anti – blocks arbovirus infection | inhibition, % at 10 µM | arbovirus infection cell-based antiviral screen | 200,000 tested, 0.37% active;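 active = inhibition from about 30%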;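 also: bluetongue infection of BSR cells; cell survival read as ATP light after 72 h; 0% = infected wells without compound and 100% = uninfected wells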
Arbovirus anti repeat – also measured in Arbovirus anti; calls as there; inhibition, %; measured here: 10K subset replicate screen; many hits read low in the repeat;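 first of two repeat runs on a subset; 0% = infected and 100% = uninfected wells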
The depositor's hits bear a star; ? = inconclusive; / = no result given; & = joins results of further samples.

SMILES | YopH PTP inh | Mtb bLac sens | Mtb H37Rv | RecA intein inh | Arbovirus anti | others
Cc1cc(=O)oc2cc(OCC(=O)OCC(=O)Nc3ccc4ccccc4c3)ccc12 | -17 | 30 | 36% | -3.4 | 0
CN1CCN(NC(=O)c2cccs2)CC1 | / | -13 | 6% | -2.4 | 4
N#Cc1cccnc1N1CCN(C(=O)c2ccccc2)CC1 | / | -8 | / | -1.9 | /
Cc1[nH][nH]c(=O)c1C=Nc1ccc(C(F)(F)F)cc1 | / | -4 | 2% | 2.7 | 12
N#Cc1ccccc1CN1C(=O)c2ccccc2S1(=O)=O | / | -26 | / | 1.7 | /
O=C1CC2(CCN(C(=O)COc3ccc(F)cc3)CC2)Oc2ccccc21 | / | -8 | / | 2.3 | /
Cc1ccc(C(=O)Cn2nnc(-c3ccccc3)n2)cc1 | / | 0 | 4% | -1.9 | /
O=C(COCc1cc(-c2ccc3c(c2)OCO3)on1)Nc1cccnc1Cl | / | ? | / | 3.5 | /
O=C(CC(c1ccccc1)c1ccccc1O)N1CCCCC1 (centres undefined) | / | -17 | / | 2.7 | /
COc1ccc(CNC(=O)c2ccc(CNc3c(NC4CCCCC4)c(=O)c3=O)cc2)cc1 | -10 | -1 | / | -1.3 | -9
O=C(CN1CCOCC1)Nc1ccc2c(c1)OCCO2 | / | 3 | -12% | -0.9 | /
Nc1nc(-c2cccs2)c(CC(=O)O)s1 | / | -2 | 2% | 0.6 | 13
COc1ccc(OCC(=O)N(C)Cc2ccccc2)cc1 | -35 | -16 | 0% | -0.1 | -2 | Arbovirus anti repeat=-3
OCc1ccccc1O[C@@H]1O[C@H](CO)[C@@H](O)[C@H](O)[C@H]1O | / | 0 | / | -0.7 | /
O=C(O)c1cc(-c2ccc(-c3c(-c4ccc5c(c4)OCO5)noc3-c3ccsc3)cc2)nc2ccccc12 | / | 4 | / | 13 | /
Fc1ccccc1C1c2cccn2CCN1C(=S)Nc1cccc(Br)c1 (centres undefined) | / | 2 | -3% | 13 | -4
COc1ccc2nc(SCC(=O)N3CCCCC3)c(C#N)cc2c1 | / | 0 | -7% | -0.1 | 4
CCNc1nc(NC(C)C)nc(N(C#N)CC(=O)OC)n1 | / | 10 | -4% | 8.0 | 4
CCOC(=O)C1CCN(C(=O)/C=C/c2cccs2)CC1 | / | -9 | -8% | 1.5 | 18
CCSc1nnc(NC(=O)c2ccc(Br)s2)s1 | -10 | -2 | 22% | 0.2 | 31*
O=C(CNc1n[nH]c(=O)[nH]c1=O)N/N=C/c1cccnc1 | -18 | -5 | -6% | -2.2 | 1
CCOC(=O)N1CCN(C(=O)c2cc3ccc(OC)cc3[nH]2)CC1 | / | -4 | / | -0.7 | /
Cc1ccc(CSCC(=O)N/N=C/c2sccc2C)cc1 | -25 | -5 | -3% | 4.3 | 6
O=C(COC(=O)c1ccccc1NCCO)NNC(=O)c1cccs1 | / | -12 | / | -5.0 | /
CC(OC(=O)c1cccc(S(=O)(=O)N(C)C)c1)C(=O)NCc1ccc2c(c1)OCO2 (centres undefined) | / | -9 | / | 3.4 | /
Cc1occc1C(=O)NC(C)C(C)(C)C (centres undefined) | -22 | 4 | 13% | 4.8 | 0
Cc1c(NP(=O)(C(C)(C)C)C(C)(C)C)c(=O)n(-c2ccccc2)n1C | / | -7 | 0% | 0.3 | 22
O=C(O)c1ccc(N2C(=O)CCCC2=O)cc1 | / | -1 | 4% | -1.5 | /
COc1ccc(Cc2nc(C)cc(Cl)n2)cc1[N+](=O)[O-] | / | 1 | / | 6.2 | /
CC(=O)Oc1ccc(N(C(C)=O)S(=O)(=O)c2ccc(C)cc2C)c2ccccc12 | / | 2 | / | 0.9 | /
COc1cc(/C=N/NC(=O)c2ccc3c(c2)OCCO3)c(Br)c(Br)c1O | / | 6 | / | -0.9 | /
COCCNC(=O)c1onc(CSc2cc(C)cc(C)c2)c1C(=O)O | -140 | 0 | -11% | -3.9 | 11
CCOC(=O)N(NC(=O)C(O)(c1ccccc1)c1ccccc1)c1ccccc1 | -16 | -4 | -8% | 2.7 | 2
Cc1ccc(S(=O)(=O)CCSc2cccc(C(=O)O)c2)cc1 | / | 3 | / | -3.4 | /
COc1ccccc1N1CCN(C(=O)NCc2cccc(C(F)(F)F)c2)CC1 | / | 3 | / | 1.2 | /
CCOc1cccc2sc(NC(=O)CC)nc12 | -29 | 5 | -7% | 1.4 | 7
CCN1CCN(Cc2ccc(NC(=O)c3ccc(C)c(NC(=O)N4CCNC4=O)c3)cc2C(F)(F)F)CC1 | / | -2&-3 | -4% | 0.8&1.6 | /
CSc1nccc(Oc2ccc(C#N)cc2)n1 | -15 | -8 | -1% | 0.0 | -3
O=C(CN1CCN(Cc2ccccc2)CC1)Nc1ccc(N2CCOCC2)cc1 | / | -1 | 5% | -0.5 | 6
S=c1[nH]nc(-c2ccco2)n1/N=C/c1cccc(Cl)c1Cl | -10 | 6 | 3% | 10.0 | -3
CC(C)Cn1c(N)c(C(=O)CSc2nc3ccccc3n2C)c(=O)n(C)c1=O | -38 | 9 | 4% | -1.3 | -10
CCCCOCCCNC(=O)N[C@@H](CCSC)C(=O)OC | -44 | -3 | -9% | 2.0 | -9
O=C(CSc1nc2ccccc2s1)N1c2ccccc2Sc2ccc(Cl)cc21 | -32 | 21 | / | 4.0 | 1
O=C1C2C3C=CC(C3)C2C(=O)N1c1ccc(-c2nc3ccccc3o2)cc1 (centres undefined) | -35 | -11 | 1% | 0.3 | 3
COc1cccc(C=Nc2cc(C)cc(C)c2)c1O | -6 | 20 | 8% | -0.6 | -5
CCOCCOc1nc(C)cc(C)c1S(=O)(=O)c1ccccc1C | / | -5 | -1% | -4.8 | 12
Cc1ccccc1N(CC(=O)N/N=C/c1ccc(N(C)C)cc1)C(=O)c1ccccc1 | 7 | -4 | -14% | -0.1 | -5
Cc1ccccc1-c1nnc(NC(=O)CSc2nc3ccccc3s2)s1 | -23 | -8 | 9% | -3.5 | -1
N#CCCn1cc(C(=O)Nc2ccc([N+](=O)[O-])cc2)c(-c2cc3ccccc3o2)n1 | / | -2 | -10% | 9.6 | -6
C=CCOc1ccc(CNCCc2ccc(S(N)(=O)=O)cc2)cc1 | / | -2 | 6% | 3.7 | -4
COC(=O)Cc1nnc(NC(=O)c2ccccc2)s1 | 2 | -3 | -14% | 1.7 | 7
COc1ccc(CC(=O)N2CCC(c3ccccc3)C2)cc1 (centres undefined) | / | -10 | 7% | 4.9 | 0
O=C(c1ccc(CSc2nc3ccncc3[nH]2)cc1)N1CCN(c2cccc(Cl)c2)CC1 | -29 | 33 | 29% | 10 | -6
CC(C)(C)c1nc(CN2CCOCC2)ccc1O | 12 | 2 | -1% | -0.8 | 16
CC(C)C[C@H](NC(=O)N1CC(=O)Nc2ccccc21)C(=O)N[C@@H](C(=O)O)c1ccccc1 | / | 4 | / | 0.5 | /
Cc1ccc(CN(CC(=O)NC2CCCC2)C(=O)c2csnn2)cc1 | / | 0 | / | -2.5 | /
CC(=O)c1ccc(N2CCN(C(=O)c3ccco3)C(C)C2)c(F)c1 (centres undefined) | -31 | 3 | -8% | -0.8 | 7
O=C(Nc1ccccc1)Nc1ccncc1 | / | -1 | 2% | -4.7 | 1
COc1ccc(OC)c(N(CC(=O)Nc2ccc3c(c2)OCO3)S(=O)(=O)c2ccccc2)c1 | 34 | -1 | 0% | 4.6 | -7 | Arbovirus anti repeat=-4
CCOC(=O)c1c(C2COc3ccccc3O2)csc1N (centres undefined) | -28 | 49 | 6% | 2.3 | 2

Next part:
SMILES | YopH PTP inh | Mtb bLac sens | Mtb H37Rv | RecA intein inh | Arbovirus anti | others
Cc1ccc(NC(=O)C(=O)NCc2ccncc2)cc1 | / | -2 | 2% | -3.1 | 1
CCOC(=O)N1CCN(C(=O)c2cnn3ccccc23)CC1 | -35 | -12 | -9% | 0.7 | 7 | Arbovirus anti repeat=0
Cc1cccc(C)c1NC(=O)c1cc(S(=O)(=O)N2CCOCC2)cn1C | / | -6 | / | -2.4 | /
CN(C)/C=N/c1nc2nccc(-c3ccccc3)n2n1 | / | -2 | 1% | 0.8 | 1
CCOC(=O)c1ccc(N=Cc2nc(-c3ccccc3)oc2OC(C)=O)cc1 | -3 | 14 | 3% | 0.4 | 3
CCc1ccc2oc(=O)cc(CN3CCC(C)CC3)c2c1 | -27 | ? | 1% | 2.3 | 4
COC(=O)Cn1c(=NC(=O)C(C)(C)C)sc2c(C)cc(C)cc21 | -33 | 1 | -5% | -0.7 | 3
C[C@H](NC(=O)Cc1cccc2ccccc12)C(=O)NCc1ccccc1 | / | -4 | 7% | 0.7 | 10
CCN(CC)CCn1c(=S)[nH]c2cc(C(=O)NCc3ccccc3Cl)ccc2c1=O | / | 7 | / | -2.4 | /
O=C(Nc1ccc(F)cc1)/C(Cl)=C/c1ccccc1 | / | 89 | ? | -12 | 2
O=C(CSc1nnnn1CCCO)Nc1ccc2c(c1)OCO2 | / | 0 | 2% | -1.8 | -2
CCN(Cc1ccccc1)C(=O)CSc1n[nH]c(N)n1 | / | -1 | / | 0.2 | /
O=S1(=O)N=C(N2CCN(Cc3ccc4c(c3)OCO4)CC2)c2ccccc21 | 1 | 0 | 3% | -2.1 | 0
O=c1cc(-c2ccccc2)c2cc(Cl)c(O)c(CN3CCOCC3)c2o1 | / | 1 | -11% | -128 | /
COc1ccccc1-c1cc2nc(C)c(CCC(=O)NCc3ccco3)c(C)n2n1 | -2 | -2 | -2% | 3.5 | 7 | Arbovirus anti repeat=-2

Retrieved by structure from above:
SMILES | YopH PTP inh | Mtb bLac sens | Mtb H37Rv | RecA intein inh | Arbovirus anti | others
O=S1(=O)N=C(N2CCN(Cc3ccc4c(c3)OCO4)CC2)c2ccccc21 | 1 | 0 | 3% | -2.1 | 0
CCOC(=O)N1CCN(C(=O)c2cnn3ccccc23)CC1 | -35 | -12 | -9% | 0.7 | 7 | Arbovirus anti repeat=0
CCN(Cc1ccccc1)C(=O)CSc1n[nH]c(N)n1 | / | -1 | / | 0.2 | /
O=C(Nc1ccc(F)cc1)/C(Cl)=C/c1ccccc1 | / | 89 | ? | -12 | 2
CN(C)/C=N/c1nc2nccc(-c3ccccc3)n2n1 | / | -2 | 1% | 0.8 | 1
CCN(CC)CCn1c(=S)[nH]c2cc(C(=O)NCc3ccccc3Cl)ccc2c1=O | / | 7 | / | -2.4 | /

(more compounds)
SMILES | YopH PTP inh | Mtb bLac sens | Mtb H37Rv | RecA intein inh | Arbovirus anti | others
CCN(CC)S(=O)(=O)c1ccc(N2CC(C(=O)NCc3cccnc3)CC2=O)cc1 (centres undefined) | / | 4 | / | 6.6 | /
FC(F)(F)c1cccc(OCCOCCn2cncn2)c1 | -14 | -7 | 0% | -0.9 | -2
Cn1c(=O)cc(OCC(=O)N2CCC(N3CCCCC3)CC2)c2ccccc21 | -44 | 4 | 8% | 1.7 | -4
O=C(CSc1ccc(Cl)cc1Cl)N1CCC(c2nc3ccccc3s2)CC1 | -9 | 63 | 12% | 10 | -21
CC(=O)c1cnc2c(-c3ccc(Cl)cc3)cnn2c1C | -29 | -7 | 8% | / | -4
COC(=O)C1=C(C)C(c2ccc(OC)cc2)NC(=S)N1 (centres undefined) | -15 | 1 | -9% | 2.0 | -4
CC(C)(C)NC(=S)NC(=O)C12CCC3CC(CC(C3)C1)C2 | / | 15 | 3% | 0.7 | -2
CCOC(=O)c1c(C)[nH]c(O)c1C=Nc1ccc(C(F)(F)F)cc1 | -45 | -3 | -9% | 1.4 | 4
CCOC(=O)C1CCCN(C(=O)C2CCN(S(=O)(=O)c3c(C)noc3/C=C/c3ccccc3F)CC2)C1 (centres undefined) | / | -11 | / | 3.7 | /
O=C(NCC(=O)N1CCN(S(=O)(=O)c2ccccc2F)CC1)c1ccc2c(c1)OCO2 | / | -2 | / | -0.6 | /
NC(=O)c1ccsc1NC(=O)CCS(=O)(=O)c1ccccc1 | / | -5 | 7% | -1.6 | 4
CC(=O)c1ccccc1C(=O)N(C)C1CCCN(Cc2ccccc2F)C1 (centres undefined) | / | -3 | / | -5.8 | /
COc1ccc(OC)c(NC(=O)NNC(=O)c2cc3occc3[nH]2)c1 | / | 1 | / | 7.9 | /
CCOC(=O)C1=C(C)NC(=O)NC1c1cc2c(cc1Br)OCO2 (centres undefined) | 21 | -11 | -2% | -2.7 | 3
Cc1ccc(-c2nc(CN(C)C)cc(CN(C)C)c2O)cc1 | -30 | -4 | 5% | / | 14
Fc1ccc(NC(=S)Nc2ccccc2Cl)cc1 | / | 1 | 3% | 0.0 | 3
O=C1c2cccc3cc([N+](=O)[O-])cc(c23)C(=O)N1c1nncs1 | / | -13 | / | -30 | /

The list is partial; rates above refer to the full screens.
